VDR inh – inhibitors of human vitamin D receptor; VDR-SRC2-3 peptide fluorescence polarization, 2 h; 400,000 tested, 0.93% active; P11473; AID 504847; Potency, µM, inactives show max response, negative = inhibition, usual class: inhibitors; active = well fitted inhibition curve with a large enough effect; inconclusive = small, poorly fitted or top-dose-only effect, or another doubt; inactive = no such curve, though single readings can be large or run the other way; note: series mostly up to about 120 µM
Target sequence (P11473 whole entry, looked up): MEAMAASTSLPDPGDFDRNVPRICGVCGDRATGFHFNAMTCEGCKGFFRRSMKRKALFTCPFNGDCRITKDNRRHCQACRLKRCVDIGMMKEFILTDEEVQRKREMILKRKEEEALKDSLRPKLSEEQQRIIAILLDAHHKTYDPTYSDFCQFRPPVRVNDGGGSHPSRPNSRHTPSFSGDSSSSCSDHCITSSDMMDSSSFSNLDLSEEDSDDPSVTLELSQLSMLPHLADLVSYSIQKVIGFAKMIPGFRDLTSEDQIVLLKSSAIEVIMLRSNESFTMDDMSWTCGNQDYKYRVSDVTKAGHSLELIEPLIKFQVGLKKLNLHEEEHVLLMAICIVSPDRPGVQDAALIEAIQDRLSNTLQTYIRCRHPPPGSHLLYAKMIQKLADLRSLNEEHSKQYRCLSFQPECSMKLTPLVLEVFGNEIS
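After 23 nl compound addition and a short centrifugation, plates sat for 2 hours at ambient temperature; polarization of fluorescence then indicated loss of VDR binding to peptide SRC2-3.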
* = called active by the depositor; ? = inconclusive; & = joins results of further samples. % is set by controls: 0 for no effect and ±100 for the full control effect; potency is the fitted concentration of half-maximal effect. A portion of the library; count on the stated rates, not on these rows.

#	VDR inh	SMILES
1	0%	C#CCOCCOCCOCCNc1nc(N2CCN(C(=O)CCCCCCCCCCNC(=O)[C@H]([C@@H](C)CC)n3cc(CCCCCN)nn3)CC2)nc(N2CCN(C(=O)CCCCCCCCCCNC(=O)[C@H](CCCCN)n3cc(CCCC(=O)O)nn3)CC2)n1
2	3%	O=C(NC1(C(F)(F)F)NC(=O)N(Cc2cccnc2)C1=O)c1ccncc1 (configuration not stated)
3	-5%	Cc1ccccc1NC(=O)Cn1c(C)nc2ccc(N)cc2c1=O
4	-3%	CC(=O)N1CCN(C(=O)CSc2nc3c(cnn3-c3ccccc3)c(=O)[nH]2)CC1
5	11%	Cc1cc(C)c(C#N)c(Nc2ccccc2)n1
6	5%	COc1ccc(Cl)cc1Nc1ncnc2sc(C)c(S(=O)(=O)N3CCC(C)CC3)c12
7	-3%	COc1ccccc1NC(=O)c1ccc(NS(C)(=O)=O)cc1
8	17%&-15%	COc1ccc(-c2noc(CSc3nnc(-c4ccccc4)n3C)n2)cc1
9	4%	CCOc1ccc2[nH]cc(C(=O)N3CCN(CC)CC3)c(=O)c2c1
10	6%	Cc1ccc(C(=O)OCC(=O)N(CC(C)C)c2c(N)n(Cc3ccccc3)c(=O)[nH]c2=O)s1
11	-6%	O=C(CCCC(=O)c1ccccc1)NCCc1ccccc1F
12	16%	Cn1nnnc1SCC(=O)Nc1cc(C(=O)O)cc(C(=O)O)c1
13	-7%	CC(C)c1ccc(N(C(=O)c2ccco2)C(C(=O)NC2CCCC2)c2ccncc2)cc1 (configuration not stated)
14	2%	CCC(C)N1C(=O)S/C(=C/c2ccc(N3CCOCC3)cc2C)C1=O (configuration not stated)
15	11%	CCCN(CC1CC1)C(=O)COC(=O)c1[nH]c(C)c(C(=O)OCC)c1C
16	11%	CCNC(=O)C1CC(=O)N(c2ccc(OCC)cc2)C1 (configuration not stated)
17	-6%	CN(C)C(CNc1ncnc2sc3c(c12)CCCC3)c1ccco1 (configuration not stated)
18	4%&-14%	COc1cc2oc(=O)cc(-c3cccc(-c4cccc(C)c4)c3)c2c(OC)c1OC
19	0%	CC(C)CCNC(=O)c1ccc(NC(=O)C2=CSCCO2)cc1
20	0%	Cc1cccc(-c2nc(CN3CCCC(C(=O)NC4CCC(C)CC4)C3)c(C)o2)c1 (configuration not stated)
21	12%	CC1=C(C(=O)Nc2ccc(Cl)cc2)C(c2ccco2)NC(=O)N1 (configuration not stated)
22	-9%&-2%&3%&0%	CNC(=O)Oc1ccc2c(c1)[C@]1(C)CCN(C)[C@@H]1N2C
23	-11%	COc1ccc(-c2c(-c3ccc(OC)c(C)c3O)n[nH]c2C)cc1
24	1%	O=C(Cn1c(CN2CCCCC2)nc2ccccc2c1=O)Nc1ccccc1
25	12%	CCOC(=O)Cc1csc(NC(=O)Cc2ccc([N+](=O)[O-])cc2)n1
26	-11%	c1ccc(OCc2nc3ccccc3[nH]2)cc1
27	-3%	CCOC(=O)C1CCCN(C(=O)c2cn(CC)c(=O)c3cc(OC)c(OC)cc23)C1 (configuration not stated)
28	3%	O=C(C1=C[C@H](c2coc3ccccc3c2=O)C[C@H](OCCCCO)O1)N1CCN(Cc2ccccc2)CC1
29	-9%	Clc1ccc(C(c2nnnn2C2CCCC2)N2CCSCC2)cc1 (configuration not stated)
30	-15%	COc1ccc(OCC(=O)N2CCN(S(=O)(=O)c3ccccc3[N+](=O)[O-])CC2)cc1
31	-7%	COc1ccc(NC(=O)c2c(F)cccc2F)cc1S(=O)(=O)Nc1ccc(Br)cc1
32	26%	Cc1cc(C(=O)NCC(=O)OC(C)C(=O)N2CCOCC2)ccc1[N+](=O)[O-] (configuration not stated)
33	89µM*	O=C(NC1CCCC1)C(c1ccc(Cl)cc1)N1CCc2ccccc21 (configuration not stated)
34	1%	Cc1ccccc1NC(=O)CSc1nc2ccc(Nc3nc(N4CCOCC4)nc(N4CCOCC4)n3)cc2s1
35	-9%	O=C(O)C1CCC(Cn2c(SCc3cc(=O)n4cc(Br)ccc4n3)nc3ccsc3c2=O)CC1 (configuration not stated)
36	-3%	Cc1cccc(NC(=O)c2ccc(Cn3cc(C(F)(F)F)ccc3=O)cc2)c1
37	-4%	COc1ccc(N(C(=O)CCl)C(C)(C(=O)Nc2c(C)cccc2C)c2ccccn2)cc1 (configuration not stated)
38	?	Cc1ccsc1C1NC(=O)c2c(sc3c2CCN(C)C3)N1 (configuration not stated)
39	-1%	O=C(O)CCc1ccc(-c2ccc(Br)cc2)n1-c1ccc(O)cc1
40	-10%	O=S(=O)(Cc1cc(Sc2ccc(Cl)cc2)nc(-c2ccccc2)n1)c1ccccc1
41	-14%	COc1ccc(OC)c(NC(=O)c2cnc3n(c2=O)CCS3)c1
42	11%	COc1ccc(C(=O)NCc2cccs2)cc1S(=O)(=O)N1CCOCC1
43	2%	Cc1ccc(-c2nc3ccccc3[nH]2)cc1NC(=S)NC(=O)c1ccccc1Br
44	-2%	COc1cc(C2C(C(=O)Nc3ccccc3OC)=C(C)Nc3ncnn32)ccc1O (configuration not stated)
45	-24%	CCCSc1ccc([C@H]2N[C@@](CC(C)C)(C(=O)OC)[C@H]3C(=O)N(C)C(=O)[C@@H]23)cc1
46	-4%	COc1ccc(C(=O)N2CCC3(CC2)CCN(c2ccncc2)CC3)cc1
47	1%	CC(C)[C@H](NS(=O)(=O)c1ccccc1F)C(=O)NC1CCCCC1
48	-11%	CCOc1ccc(-n2c(SCC(=O)Nc3ccc4c(c3)OCO4)nc3c(c2=O)SCC3)cc1
49	-14%	CCN(CC)C(=O)CSc1nc(O)c(Cc2ccccc2)c(=O)n1-c1ccc(C)cc1
50	5%	O=C(CN1C2CCC1CC(NC(=O)C1CC1)C2)NCc1ccccc1 (configuration not stated)
51	7%	Cc1cc(C)n2cc(CSCC(=O)O)nc2n1
52	1%	CCSc1nc2nn(-c3ccccc3)c(=O)c-2c2n1CCCCC2
53	15%	CCOC(=O)C1CCN(C(=O)c2cccc(S(=O)(=O)N(CC)c3ccccc3)c2)CC1
54	?	CCc1ccccc1NC(=O)Cc1ccc(-n2cccc2)cc1
55	-18%	COc1ccc(/C=C(\C#N)C(=O)NCCc2ccccc2)cc1OCc1ccccc1
56	-9%	CC(=O)Oc1ccc(N(C(C)=O)S(=O)(=O)c2ccc(C)cc2)c2ccccc12
57	1%	Cn1nc(C(=O)Nc2nnc(C3CC3)s2)c2ccccc2c1=O
58	-1%	Cc1cc(C)c(NS(=O)(=O)c2ccc(NC(=O)c3cccs3)cc2)c(C)c1
59	0%	CCc1ccccc1NC(=O)CN(C)C(=O)COC(=O)c1ccccc1Cl
60	-14%	OCC[C@@H]1C[C@H](O)[C@@H](O)[C@@]2(CCc3ccccc3O2)O1

Further records.
#	VDR inh	SMILES
61	-2%	Cc1ccc(S(=O)(=O)NCC2CCC(C(=O)NC3CCCCC3)CC2)cc1 (configuration not stated)
62	4%	CCOc1ccc(N2CC(C(=O)NNC(=O)c3ccc(F)cc3)CC2=O)cc1 (configuration not stated)
63	-3%	CN(Cc1ccccc1)C(=O)COC(=O)CCC(=O)c1ccc(F)cc1
64	-1%	O=C1C(Cl)=C(NCC2CCCO2)C(=O)N1c1cccc(Cl)c1Cl (configuration not stated)
65	20%	CC1(c2ccccc2)CC(c2ccccc2)=Nc2nonc2N1 (configuration not stated)
66	-1%	C[N+](C)(CC#N)C/C=C\c1ccccc1
67	-4%	COC(=O)N[C@@H](CCc1ccccc1)/C(C(=O)OC)=C(\C)NCc1ccccc1
68	16%	Cc1ccc(NC(=O)c2ccc(CSc3nccc(C)n3)cc2)cc1
69	-16%	Cc1ccc(NC(=S)Nc2ccc(OC(F)F)c(Cl)c2)cc1Cl
70	3%	CCN(CC(=O)NCc1ccc(F)cc1)CC(=O)Nc1ccc(Br)cc1F
71	-3%	NC(=O)[C@@H]1CCCN1C(=O)c1cc(COc2ccc(F)cc2F)on1
72	-14%	O=C(Nc1ccccc1)OCC1CCCO1 (configuration not stated)
73	2%	CC(=O)Oc1ccc(C(=O)Nc2cccc(NC(=O)c3ccco3)c2)cc1
74	-6%	COc1ccc(-c2nnn(CC(=O)N(C3CCCCC3)C(C)C(=O)NC3CCCC3)n2)cc1OC (configuration not stated)
75	-23%	COc1ccc(Cn2nnc(C(=O)Nc3cc(OC)ccc3OC)c2N)cc1
76	-29%	O=C1c2cccc(OCC(=O)N3N=C(c4cccs4)CC3c3ccc(F)cc3)c2CCN1Cc1ccccc1 (configuration not stated)
77	-4%	CCOC(=O)C(NC(=O)N1CCCCC1)(c1ccccc1)C(F)(F)F (configuration not stated)
78	10%	Cc1ccc(NC(=O)c2c(C)oc3ccc(O)c(CN4CCCCCC4)c23)c(C)c1
79	-15%	Cc1cc(C)nc(-n2nc(C)c3c(=O)[nH]c(C(F)(F)F)nc32)n1
80	-9%	O=C(CSc1nc(=O)n(Cc2ccncc2)c2c1CCC2)Nc1cccc(F)c1

In a second layout: results already given
nr	compound	VDR inh
75	COc1ccc(Cn2nnc(C(=O)Nc3cc(OC)ccc3OC)c2N)cc1	-23%
70	CCN(CC(=O)NCc1ccc(F)cc1)CC(=O)Nc1ccc(Br)cc1F	3%

Single values from the list.
entry 80 in VDR inh = -9%
entry 76 in VDR inh = -29%
entry 77 in VDR inh = -4%
entry 71 in VDR inh = -3%
entry 65 in VDR inh = 20%
entry 78 in VDR inh = 10%

Further compounds follow.
#	VDR inh	SMILES
81	-18%	CCn1c(CSc2nc3ccccc3n2C)nc2ccccc21
82	-13%	Cc1ccc(S(=O)(=O)Nc2nc3n(n2)C(c2ccc(Cl)cc2)CC(=O)N3)cc1 (configuration not stated)
83	-2%	COCc1cc(CNC(=O)C2CCC(=O)N(Cc3ccccc3OC)C2)[nH]n1 (configuration not stated)
84	-1%	CN(C)CCC=C1c2ccccc2C(C)(C)c2ccccc21
85	6%	Cc1cccc(C(=O)Nc2ccc(Oc3cnccn3)cc2)c1
86	-5%	CC(C)(C)c1ccc(C(=O)NCC(=O)OCC(=O)Nc2nc(-c3ccc(F)cc3)cs2)cc1
87	-4%	CC(=O)c1c(C)[nH]c(C(=O)OCCOc2ccccc2)c1C
88	?	COc1ccc(Nc2nc(Nc3ccc(OC)cc3)nc(-n3[nH]c(=O)c(C)c3C)n2)cc1
89	-5%	CSc1ccccc1NS(=O)(=O)c1cccc2nonc12
90	-13%	COc1ccc(F)cc1S(=O)(=O)N1CCC(C(N)=O)CC1
91	6%	CCCC1CCC(=NNC(=O)CNc2ccc(OC)cc2)CC1 (configuration not stated)
92	-6%	CCOc1ccc(-c2nc(C#N)c(N3CCN(CC)CC3)o2)cc1
93	-6%	CCOc1ccc(CCNC(=O)c2cccc(Nc3nc4ccccc4nc3-n3nc(C)cc3C)c2)cc1OCC
94	-18%	O=C(CCc1ccccc1)Nc1cccc(S(=O)(=O)N2CCOCC2)c1
95	14%	CC(=O)Oc1ccc(C(=O)Nc2ccccc2C(=O)N2CCCC2)cc1
96	17%	CCOC(=O)Cc1csc(SCC(=O)c2c(N)n(CC(C)C)c(=O)n(C)c2=O)n1
97	-6%	O=C(NC1CC(=O)N(c2ccc(F)cc2)C1)N1CCN(C(=O)c2ccco2)CC1 (configuration not stated)
98	-3%	CCCc1cc(C(=O)N2CCN(c3ccccc3C)CC2)cs1
99	-2%	O=C1NC[C@@H](Cc2cccc3ccccc23)N(CC2CCCCC2)C1=O
100	-13%	Clc1ncnc2scc(C3COc4ccccc4O3)c12 (configuration not stated)

The final 6 records of the part above are carried over, then new ones follow.
#	VDR inh	SMILES
95	14%	CC(=O)Oc1ccc(C(=O)Nc2ccccc2C(=O)N2CCCC2)cc1
96	17%	CCOC(=O)Cc1csc(SCC(=O)c2c(N)n(CC(C)C)c(=O)n(C)c2=O)n1
97	-6%	O=C(NC1CC(=O)N(c2ccc(F)cc2)C1)N1CCN(C(=O)c2ccco2)CC1 (configuration not stated)
98	-3%	CCCc1cc(C(=O)N2CCN(c3ccccc3C)CC2)cs1
99	-2%	O=C1NC[C@@H](Cc2cccc3ccccc23)N(CC2CCCCC2)C1=O
100	-13%	Clc1ncnc2scc(C3COc4ccccc4O3)c12 (configuration not stated)
101	-5%	O=C(CN1C(=O)c2ccccc2S1(=O)=O)N1CCc2ccccc2C1
102	-20%	Cc1cc(C)c(-c2cc(C(F)(F)F)no2)c(=O)[nH]1
103	-7%	CC(=O)Nc1ccc(NC(=O)CSc2nnnn2C2CCCCC2)cc1
104	-2%	O=C(NC(=S)Nc1cccc(NC(=O)c2ccc(Cl)cc2Cl)c1)c1cccs1
105	12%	O=C(CN1C(=O)C(=O)N(C2CCCC2)C1=O)Nc1ccc(OC(F)F)cc1
106	13%	O=C(NCC1CCCN(C(=O)c2cscn2)C1)c1ccccc1Cl (configuration not stated)
107	0%	Cc1cccc(NC(=O)COC(=O)CC2CCCC2)c1C
108	-2%	O=C(NCc1ccc2c(c1)OCO2)c1ccc2c(c1)N(Cc1ccccc1)C(=O)c1ccccc1S2=O (configuration not stated)
109	-12%	CCOC(=O)Cn1c(S(=O)(=O)Cc2ccccc2Cl)nc(-c2ccccc2)c1-c1ccccc1
110	4%	O=C(Nc1ccc(Cl)cc1)Nc1cnccn1
111	8%	CCNS(=O)(=O)c1ccc(CCC(=O)Nc2cc(Cl)ccc2Oc2ccccc2)cc1
112	8%	O=C(NCCn1cc(SCc2ccc(C(F)(F)F)cc2)c2ccccc21)c1ccccc1F

Screening results: PubChem, National Center for Advancing Translational Sciences (NCATS)
